# Screens: PubChem BioAssay, Fisher Drug Discovery Resource Center
# NPYLR7 ag: agonists of mosquito NPYLR7 receptor, primary screen, cell-based, Aedes aegypti, calcium fluorescence, mosquito biting behavior; Aedes aegypti neuropeptide Y-like receptor 7 (NPYLR7); HEK293T NPYLR7/Galpha15, GCaMP6s calcium fluorescence; activation, % at 10 µM; 0.15% of 270,000 active; in the data active = activation above about 40%;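 also: 0% = vehicle and 100% = reference agonist at the receptor; some compounds past the cut are filed as inactive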
# NPYLR7 ag max-min: further read-out of NPYLR7 ag, marked with its call; activation, %; measured here: Max-Min RFU normalised activation; some inactives read as strong as hits;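 span of the calcium signal over five minutes; 0% = vehicle and 100% = native peptide agonist; compound fluorescence can raise it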
# * = called active by the depositor.
molecule,NPYLR7 ag,NPYLR7 ag max-min
COC1(OC)N=C(N)C2(C#N)C3(CCCCC3)C12C#N (stereo not drawn),-1,-5
CC1(C(=O)NS(=O)(=O)c2cccc(F)c2)CCN1C(=O)Cc1ccc(Cl)cc1Cl (stereo not drawn),5,1
CC(C)(CNCc1cc(Br)ccc1F)N1CCOCC1,37,32
CC(C)CN1CCN(c2nc3c(c(=O)[nH]c(=O)n3C)n2Cc2cccc3ccccc23)CC1,-8,-14
COC(=O)CSc1nc2nc3c(cn2n1)C(=O)CC(c1cccs1)C3 (stereo not drawn),28,18
C[C@@H](NC(=O)N1CCC(n2cc(CO)nn2)CC1)c1ccc(F)cc1,1,-1
CC(C)CN1CCCCC1Cc1nc2c([nH]1)CC(C)(C)CNC2=O (stereo not drawn),9,4
COc1ccc(NC(=O)/C=C/c2ccc(Cl)cc2)cc1,2,-27
CN1CCCc2cc(CNC(=O)c3nn(-c4cccc(F)c4)ccc3=O)ccc21,5,2
CC(C)Cc1n[nH]c(Cn2[nH]c(=O)ccc2=O)n1,-7,-14
c1ccc(CSc2ccc(-c3cccs3)nn2)nc1,0,-2
CC(O)c1cccc(-c2cc(NC3CCNCC3)nc3[nH]ccc23)n1 (stereo not drawn),40,23
Cc1nn(C)c(C)c1CCNC(=S)NCc1cccs1,-1,-2
COc1ccc(C(C)=O)cc1Cn1cc(C(=O)NCc2ccc(OC)c(OC)c2)sc1=O,8,3
CC(C(=O)N1CCN(c2ccccc2)CC1)N1C(=O)c2ccccc2C1=O (stereo not drawn),-4,-9
CCOc1ccc(C(=O)N(C)Cc2noc(C)n2)o1,4,2
COCC(=O)N1CCCN(Cc2cc(=O)c3ccccc3[nH]2)CC1,5,2
CCn1c(=C(C#N)C(=O)N2CCOCC2)sc(=Cc2sccc2C)c1=O,6,5
Cc1cc(N2CCC(CO)(CC3CCCCO3)CC2)c2ccccc2n1 (stereo not drawn),22,13
O=C(NCCCc1ccccn1)C1CCCN(C2CCN(C(=O)C3CC3)CC2)C1 (stereo not drawn),8,1
CCC(/C=C/[C@@H](C)[C@H]1CCC2C3CC=C4C[C@@H](O)CC[C@]4(C)C3CC[C@@]21C)C(C)C (stereo partly drawn),-7,-10
O=C1/C(=C/c2cc3cc(Br)ccc3o2)Oc2c1ccc(O)c2CN1CCCC1,20,13
CN1CCCC2(CCN(C(=O)CCCc3nc(-c4ccco4)no3)C2)C1=O (stereo not drawn),4,-2
Cc1nc2sccn2c1CN1CCC(N2CCC(C(=O)NC3CC3)CC2)CC1,1,-2
COC(=O)c1c(NC(=O)CSc2nc(C)nc3sc4c(c23)CCCC4)sc(C)c1C,3,-3
COc1ccc(-c2nn(CCC#N)cc2C=C(C#N)C#N)cc1,-4,-5
COc1ccc(C(=O)N(CCc2ccccc2)CC2CCCN(C)C2)cc1OC (stereo not drawn),2,0
COCC(C)NCc1ccc(-c2ccn[nH]2)cc1 (stereo not drawn),0,-1
Cc1cc(C)n2ncc(CN3CCCC3c3c(C)noc3C)c2n1 (stereo not drawn),3,1
Cc1ccc(-n2nc(C)c3c(=O)c(C(=O)Nc4cccc(C)c4)c[nH]c32)cc1,-1,21
COc1cc(F)ccc1-c1cc(CO)ccn1,2,-1
O=C(c1cnn2c1NC(c1cccs1)CC2C(F)(F)F)N1CCOCC1 (stereo not drawn),11,10
COc1ccccc1NC(=O)CSc1ccc2nnc(-c3ccncc3)n2n1,-5,-5
CCN(CC)C(=O)Oc1ccc2c(ccn2Cc2cc(F)ccc2C)c1-c1ccc(C#N)cc1,5,-2
Cn1ccnc1SCCn1ccnc1-c1ccc2ccccc2n1,6,2
Cn1cnc2c1c(=O)n(CCCSc1nnc(NC3CC3)s1)c(=O)n2C,-2,22
COc1cccc(-c2cc(C(=O)N3CCN(C(c4ccccc4)c4ccccc4)CC3)n(-c3cccc(Cl)c3)n2)c1,1,15
CC1CCCN(S(=O)(=O)c2ccc(NC(=O)c3cccs3)cc2)C1 (stereo not drawn),-1,0
Cc1ccc(-c2cc3c(SCC(=O)NC4CCCCC4)nccn3n2)cc1,-3,-8
O=C(NCc1cccnc1)c1coc(CN(Cc2ccc(C(F)(F)F)cc2)C2CC2)n1,21,5
CC(C)c1cc(CNC(=O)CCc2nnc(CCCc3ccccc3)o2)on1,3,0
CN(CCCc1ccc(C(F)(F)F)cc1)S(C)(=O)=O,3,2
CCc1ccc(CN2CC[C@@](C)(O)[C@@H](CC(C)C)C2)nc1,5,2
O=S(=O)(c1cnc[nH]1)N1CCN(c2ccccc2F)CC1,17,12
CSc1ccc(Cl)c(C(=O)N[C@@H](C)C(=O)N2CCCCC2)c1,21,15
Cc1c(-c2cccc(C(=O)O)c2)c(=O)[nH]c2ccccc12,3,1
Cc1ccc(CCC(=O)NC2CCOC3(CCSC3)C2)c(C)c1 (stereo not drawn),2,0
Cn1cc(OCc2ccc(F)cc2)c(=O)cc1C(=O)NCCc1ccc(F)cc1,0,-1
Cc1cc(C)cc(NC(=O)Cn2cc(S(=O)(=O)N3CCCC3)ccc2=O)c1,2,1
Cc1ccc(N=C2NC(=O)CC(C(=O)Nc3ccc(F)c(Cl)c3)S2)cc1 (stereo not drawn),1,14
COCCCCC(=O)Nc1cc(C(F)(F)F)[nH]n1,8,5
Cc1nc(C(C)C)sc1C(=O)N1CCc2c(nc[nH]c2=O)C1,3,-2
Cc1nn(CC(=O)Nc2ccc(F)cc2)c(=O)c2c1cnn2-c1ccc(F)cc1,6,4
Cc1ccc(-c2nc3ccccn3c2NC(=O)Cc2ccccc2)cc1,-3,-3
CCOc1ccc(C2C(=C(O)c3ccc(OC)cc3)C(=O)C(=O)N2Cc2cccnc2)cc1 (stereo not drawn),0,-2
CCc1nc2c(OCC3COc4ccccc4O3)cccn2c1N(C=O)CC(=O)N(C)C (stereo not drawn),10,-6

# Going on with the list.
molecule,NPYLR7 ag,NPYLR7 ag max-min
Clc1ccc(CSc2nnc3nc[nH]n23)c(Cl)c1,1,-2
CC(=O)Nc1ccc(Oc2ccc(C#N)c(C#N)c2)cc1,-6,-9
CCOCCOc1nc(-c2cccc(C(F)(F)F)c2)n(-c2ccc(NC(=O)C(C)(C)CCl)cc2)n1,-3,-8
COCCCN1CC2=C(C1=O)C(c1ccsc1)NC(=O)N2C (stereo not drawn),24,23
COC(=O)c1cccc(CSc2nnc(-c3ccccc3Cl)n2-c2ccccc2Cl)c1,4,17
CCOc1cccc(C(=O)Oc2cccc3ccc(C)nc23)c1,-6,-16
Cc1cc(NC(=O)CNc2cc(Cl)ccc2C)on1,1,0
Cc1cc(N2CCN(C)CC2)nc(SCc2ccc(C(=O)O)o2)n1,10,19

# Whole records from above. Screens in order: NPYLR7 ag | NPYLR7 ag max-min
# Results for COCCCN1CC2=C(C1=O)C(c1ccsc1)NC(=O)N2C (stereo not drawn) → 24 | 23
# Results for CCOc1cccc(C(=O)Oc2cccc3ccc(C)nc23)c1 → -6 | -16

# Back to the main list, repeating the 7 entries before the break.
molecule,NPYLR7 ag,NPYLR7 ag max-min
CC(=O)Nc1ccc(Oc2ccc(C#N)c(C#N)c2)cc1,-6,-9
CCOCCOc1nc(-c2cccc(C(F)(F)F)c2)n(-c2ccc(NC(=O)C(C)(C)CCl)cc2)n1,-3,-8
COCCCN1CC2=C(C1=O)C(c1ccsc1)NC(=O)N2C (stereo not drawn),24,23
COC(=O)c1cccc(CSc2nnc(-c3ccccc3Cl)n2-c2ccccc2Cl)c1,4,17
CCOc1cccc(C(=O)Oc2cccc3ccc(C)nc23)c1,-6,-16
Cc1cc(NC(=O)CNc2cc(Cl)ccc2C)on1,1,0
Cc1cc(N2CCN(C)CC2)nc(SCc2ccc(C(=O)O)o2)n1,10,19
CC(C)CN1C(=O)N(C2Cc3ccccc3C2)C(=O)C12CCN(Cc1cnn(-c3ccccc3)c1)CC2,3,-9
COc1cccc(COc2coc(CN3CCCN(S(=O)(=O)c4cc(Cl)cc(Cl)c4)CC3)cc2=O)c1,-6,-1
CCCCc1ccc(NC(=O)c2cccn(OCc3cccc([N+](=O)[O-])c3)c2=O)cc1,16,18
Cc1cc(C)c2[nH]c(C(=O)N3CCC(n4ccnc4)C3)c(C)c2c1 (stereo not drawn),1,15
CC(=O)c1ccc(N2C(=O)CC3CS(=O)(=O)CC32)cc1 (stereo not drawn),1,5
c1nc(NCCc2ccsc2)c2nc3n(c2n1)CCCCC3,2,-2
CCn1c(=O)c2c(nc3n2CCN3c2cccc(Cl)c2)n(C)c1=O,1,-2
COCCNC(=O)CCC1CCN(C(=O)NC2CCCCC2)CC1,3,1
COC(=O)c1ccc(S(=O)(=O)Nc2cc(S(N)(=O)=O)cc(C)c2C)cc1,2,10
CCOC(=O)c1cccc(NCN2C(=O)c3ccccc3C2=O)c1,-5,-8
Cc1cnc(N2C[C@H](O)[C@@H](N3CCCC3)C2)nc1N(C)C,-11,-8
O=C1CN(S(=O)(=O)c2c(F)cc(F)cc2F)CC2c3ccc(F)cc3CCN12 (stereo not drawn),35,28
CC(=O)NC1(C#N)CCCCCC1,-4,-7
CCCS(=O)(=O)Nc1cccc(-c2ccc(S(=O)(=O)CC)nn2)c1,9,3
CN1CCC(N(C)Cn2nc(-c3ccc4c(c3)OCO4)n(-c3ccccc3)c2=S)CC1,0,4
C=C(C)CN1N=C(C)Cn2c1nc1c2c(=O)n(Cc2ccc(Cl)cc2)c(=O)n1C,1,-4
COC(=O)NC1CCN(c2ccccc2C(=O)N2CCOCC2)CC1,20,15
CCCCCn1c(=O)c2c(nc3n(-c4ccc(S(N)(=O)=O)cc4)c(C)cn23)n(C)c1=O,1,-1
c1cc(CNCc2ccnc(N3CCCCC3)c2)c2c(c1)OCCCO2,11,8
COCc1c(Br)c(C)nc(OCC(=O)N/N=C\c2ccc(-c3ccc(Cl)cc3[N+](=O)[O-])o2)c1C#N,25,18
O=C(Nc1nonc1NC(=O)c1cccs1)c1cccs1,2,0
COc1ccccc1-n1c(-c2ccccc2)cc(C(=O)N2CCN(C(c3ccccc3)c3ccccc3)CC2)c1C,-4,6
N#Cc1c(F)cccc1NCc1ccccc1CN1CCOCC1,1,0
CCc1c(C)nc2c(O)cccn2c1=O,-4,-12
CCOc1cc(S(=O)(=O)N(C)C)ccc1Cl,11,9
COc1cccc(-c2nc3ccccn3c2NC(=O)C23CC4CC(CC(C4)C2)C3)c1,-12,-2
COc1cccc(CN2CCC2(C)C(=O)Nc2ccc(C)cc2)c1F (stereo not drawn),11,4
COc1ccc(CNC(=O)c2sc(=O)n(Cc3ccc(S(=O)(=O)N(C)C)cc3)c2C)cc1,9,3
CCOc1ccccc1-n1c(C2CCC2)n[nH]c1=O,-2,-2
COCc1c(Br)c(C)nc(OCC(=O)N/N=C\c2cc(I)c(O)c(OC)c2)c1C#N,-5,-6
CCOc1ccc(-n2nnc3c(N4CCN(C(=O)C56CC7CC(CC(C7)C5)C6)CC4)ncnc32)cc1,-4,-12
CCCN(CC1CCCO1)C(=O)CC1(c2ccccc2)CC(=O)N(Cc2cccs2)C1=O (stereo not drawn),1,-2
CC1CCCCN1C(=O)C(NC(=O)c1cccs1)C1CCN(C(=O)CCc2ccccc2)CC1 (stereo not drawn),-7,-7
Cc1sc(C(=O)Nc2ncn[nH]2)c(-n2c(C)ccc2C)c1C,-6,-7
COc1ccc(CCNC(=O)Cc2cc(-c3cc4ccccc4o3)on2)cc1,1,4
CN(Cc1ccco1)C(=O)c1ccccc1N1CCC(NC(=O)c2ccc(Cl)cc2)CC1,-1,13
OCCCn1cnc(-c2ccccc2)c1-c1ccc2cccc(O)c2n1,27,17
COc1cccc(NC(=O)C2(C)CCN2CC2CCOC2)c1 (stereo not drawn),0,-5
C(=N/n1cnnc1)/c1ccccc1OCc1cccc2ccccc12,-2,-9
O=C(CN1C(=O)SC(=Cc2cccs2)C1=O)Nc1nc(-c2cc(F)ccc2F)cs1,3,4
Cc1ccn2c(=O)c(NC(=O)c3ccc(C(F)(F)F)cc3)c(C)nc2c1,-7,-6
Cc1cc(C(=O)NCCSc2cn[nH]n2)n[nH]1,-5,-7
COc1ccc(OC)c(S(=O)(=O)N2CCC[C@H]2C(=O)OCCc2ccc(OC)c(OC)c2)c1,22,12
CCCC12CN(C(C)=O)CC(C)(CN(C(C)=O)C1)C2=O,2,-1
Cc1cc(=O)[nH]c(-n2nc(C)cc2NC(=O)Cc2ccc([N+](=O)[O-])cc2)n1,6,0
O=C(Cn1ccn2nc(-c3ccc(Cl)cc3)cc2c1=O)NCc1ccccc1,18,14
O=C(NC1CCCN(Cc2ccccc2)C1)c1ccc(F)cc1Cl (stereo not drawn),5,3
COCCCN(CC(=O)N1CCc2sccc2C1c1ccccc1C)C(=O)/C=C/c1ccc([N+](=O)[O-])cc1 (stereo not drawn),18,22
O=C(C1=NOC2C3CCC(C3)C12)c1ccccc1 (stereo not drawn),4,7
Cc1ccccc1C1c2ccsc2CCN1C(C)C(=O)N1CCCN(C(=O)C2C[C@H]2c2ccccc2)CC1 (stereo partly drawn),33,27
Cc1cccc(-c2noc(CCc3nc(CCc4ccccc4)n[nH]3)n2)c1,12,9
COC1/C=C/OC2(C)Oc3c(C)c(O)c4c(O)c(cc(O)c4c3C2=O)NC(=O)/C(C)=C\C=C\C(C)C(O)C(C)C(O)C(C)C(OC(C)=O)C1C (stereo not drawn),-17,-27

# Not all compounds are listed; the hit share may differ from the screen's.
